Source: PubChem BioAssay
PrP UTR inh: inhibition of PrP 5' UTR reporter expression; AID 488862; inhibition, % (concentration not given with the values); cell-based PrP 5' UTR mRNA reporter, plate reader; 0.35% of 340,000 active;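 active means every replicate at 50% or more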;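 further: 0 = median of the neutral control wells; tested in H4 reporter cells; numbers are from one replicate; inactives centre near -14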
Sa RN4220 lethal: S. aureus RN4220 growth inhibition; OD600, 16 h; inhibition, % (no concentration beside the values); 0.33% of 330,000 active; AID 1259311;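 active means z-score of -3 or lower and OD600 up to 0.18 on both plates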;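 further: plate controls were untreated cells for no effect and reference antibiotic for full effect; stock transfer was 100 nL into about 80 µL; one replicate is shown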
Autofluor counter: compound fluorescence in toxin protease inhibitor counterscreen. compound autofluorescence counterscreen, microsphere flow cytometry; stronger effect = higher value. fluorescence intensity (no concentration beside the values). 3.1% of 360,000 active. AID 624483;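 active means at least 3 SD above the mean of all compounds, about 16000 in these data; inconclusive means too few beads counted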;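 further: 100 nL of 1 mM stock went into each well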
Mtb hypoxia rep: reduces hypoxia-regulated biosensor signal in M. tuberculosis. M. tuberculosis hypoxia-regulated fluorescent reporter, fluorescence. fluorescence inhibition, % (concentration not given with the values). AID 1159583. 0.1% of 300,000 active;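 active means 35 to 45% if threefold the growth effect, above 45% if 1.5-fold the growth effect; inactive means the rest, general growth blockers included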;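 further: wells of about 50 µL received 100 nL stock; 0% = vehicle wells and 100% = reference inhibitor wells; whole bacteria with a GFP reporter of the hypoxia response; strong numbers were not always called active; many hits fall short of the cut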
BJeLR lethal: BJeLR cell viability loss | inhibition, % (concentration not given with the values) | BJeLR (HRASV12) viability, CellTiter-Glo ATP luminescence, 48 h; reference of the scale not given here | 0.17% of 300,000 active;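 active means replicate mean above 50%; inconclusive means above 50% but judged a plate artefact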;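 further: 50 nL library stock added to about 25 µL; numbers are from one replicate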
ugtP null kill: growth inhibition of S. aureus ugtP deletion strain. S. aureus RN4220 ugtP deletion, OD600 growth, 16 h; some inactives read as strong as hits. growth inhibition, % (concentration not given with the values). 0.54% of 330,000 active. AID 1259309;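 active means z-score under -3 and OD600 up to 0.15 on both plates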;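 further: plate controls were untreated wells for no effect and antibiotic for full effect; wells of about 80 µL received 100 nL stock; the first replicate is given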
Mtb hypoxia rep growth: second read-out of Mtb hypoxia rep, no call of its own (marks repeat the call); growth inhibition, %; measured here: M. tuberculosis growth (absorbance);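 0% = vehicle and 100% = reference antibiotic; read after six days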
* marks the source's active call; other numbers are inactive results; u = inconclusive; x = not tested or not shown.

SMILES	PrP UTR inh	Sa RN4220 lethal	Autofluor counter	Mtb hypoxia rep	Mtb hypoxia rep growth	BJeLR lethal	ugtP null kill
COc1ccc(NC(=O)CN(C)C(=O)c2cccc(S(=O)(=O)N3CCCc4ccccc43)c2)cc1	-5	0.0	u	-12	5	2	1
COC(=O)c1nn(-c2ccccc2)c(Sc2ccc(OC)cc2)c1C=NO	x	-8.3	x	8	2	x	-5
Cc1ccc(C2=Nc3ccccc3NC(C)(c3ccc(C)o3)C2)o1 (configuration not stated)	-27	-2.0	u	-3	8	8	-18
Cc1cc(C)cc(NC(=S)NC2CC3CCC(C2)N3Cc2ccco2)c1 (configuration not stated)	-37	2.7	10192	8	7	0	5
CC(CC(=O)Nc1nccs1)c1ccccc1 (configuration not stated)	-7	-4.2	4150	-3	4	-19	-2
COC(=O)c1c(NC(=O)COC(=O)CNC(=O)C2CCCCC2)sc(C)c1C	3	-0.2	2652	6	15	-1	3
Cc1ccc(N2CC(=O)N(NC(=O)c3sc4nc(C)cc(C)c4c3N)CC2=O)cc1	-11	2.1	5927	13	6	5	-2
C(=C\c1ccccc1)/C=N/Nc1nc(N2CCOCC2)nc(N2CCOCC2)n1	-19	x	2811	x	x	3	x
Cn1c(N/N=C\c2cccc(O)c2)cc(=O)n(C)c1=O	-28	x	1940	x	x	-2	x
CC1=CC(C)(C)NC(=S)N1C(C)c1ccccc1 (configuration not stated)	-13	3.8	3715	1	-3	2	0
O=C(Nc1ccc(C(=O)O)cc1)Nc1ccc([N+](=O)[O-])cc1	0	6.0	4125	7	5	-1	9
O=C(Nc1nnc(CCS(=O)(=O)c2ccc3ccccc3c2)s1)c1cccs1	8	x	2452	x	x	-29	x
Cc1ccc2nc(N(CCCN(C)C)C(=O)c3ccc(S(=O)(=O)N4CCCCCC4)cc3)sc2c1	-12	-2.2	6169	0	6	12	-6
CCc1ccc(NC(=O)C(=O)NN=C(C)CC(=O)NCCOC)cc1	x	2.7	x	9	0	x	3
COc1cc(Cl)c(C)cc1NC(=O)c1ccc(S(C)(=O)=O)cc1	-4	2.4	3399	16	8	-2	12
COc1nn(CC(=O)N2N=C(C)CC2(O)C(F)F)cc1[N+](=O)[O-] (configuration not stated)	-17	-1.4	3336	7	-1	-14	-1
O=C(Nc1ccncc1)c1sc2ccccc2c1Cl	-42	-3.2	4610	-3	-2	4	-4
Cc1ccc(S(=O)(=O)NN=Cc2ccc([N+](=O)[O-])o2)cc1	x	8.0	x	10	-7	x	36
COc1ccc(Nc2nc(NC(C)(C)C)nc(N3CCOCC3)n2)c(OC)c1	-5	1.0	2027	-17	-6	-2	4
CC(O)CC#Cc1ccc2oc(=O)c(-n3cc(-c4ccsc4)nn3)cc2c1 (configuration not stated)	x	9.6	x	6	2	x	5
Cc1ccc(-c2nn(-c3ccccc3)cc2C=NNC(=O)CSc2nnc(C)n2-c2ccccc2)cc1	x	-11	x	3	9	x	-14
COc1ccc(NC(=O)CN(C)S(=O)(=O)c2ccccc2)c([N+](=O)[O-])c1	-25	5.4	10806	17	4	-3	4
Cc1ccc(-c2nnn(CC(=O)N(CC3CCCO3)C(C(=O)NC3CCCC3)c3ccc(O)cc3)n2)o1 (configuration not stated)	-32	3.3	3214	-2	-2	-7	-1
COc1ccc(C(=O)NC2CCN(S(=O)(=O)c3ccc(F)cc3)CC2)cc1	23	2.0	3715	-3	-4	-1	8
Cc1ccccc1OCCn1c(CCNC(=O)C(C)C)nc2ccccc21	-26	3.1	2422	3	6	-2	-2
O=C(c1ccc2c(=O)n3c(nc2c1)CCCCC3)N1CCCCC1	-5	5.3	5589	-1	4	3	12
COC(=O)C(C)Sc1nc(NCc2ccccc2)nc(N(C)C)n1 (configuration not stated)	12	-1.3	3188	-6	1	3	-5
O=C(NNC(=S)Nc1ccccc1)c1cccc(Br)c1	-45	4.6	12500	8	1	-15	-3
COc1cc(/C=C2\C(=N)N3N=C(S(C)(=O)=O)SC3=NC2=O)cc(OC)c1OCCOc1ccccc1C	-24	3.8	3773	14	1	1	14
CNC(=O)CN(c1ccc(F)cc1)S(=O)(=O)c1cc(C)ccc1OC	-21	0.9	11199	4	-2	-4	9

Exported bar-delimited: two of the compounds above
compound | PrP UTR inh | Sa RN4220 lethal | Autofluor counter | Mtb hypoxia rep | Mtb hypoxia rep growth | BJeLR lethal | ugtP null kill
O=C(NNC(=S)Nc1ccccc1)c1cccc(Br)c1 | -45 | 4.6 | 12500 | 8 | 1 | -15 | -3
Cc1ccc(-c2nn(-c3ccccc3)cc2C=NNC(=O)CSc2nnc(C)n2-c2ccccc2)cc1 | x | -11 | x | 3 | 9 | x | -14

Arranged by formula weight (largest number first): 18 of the compounds above.
SMILES	PrP UTR inh	Sa RN4220 lethal	Autofluor counter	Mtb hypoxia rep	Mtb hypoxia rep growth	BJeLR lethal	ugtP null kill
COc1cc(/C=C2\C(=N)N3N=C(S(C)(=O)=O)SC3=NC2=O)cc(OC)c1OCCOc1ccccc1C	-24	3.8	3773	14	1	1	14
Cc1ccc2nc(N(CCCN(C)C)C(=O)c3ccc(S(=O)(=O)N4CCCCCC4)cc3)sc2c1	-12	-2.2	6169	0	6	12	-6
Cc1ccc(-c2nnn(CC(=O)N(CC3CCCO3)C(C(=O)NC3CCCC3)c3ccc(O)cc3)n2)o1 (configuration not stated)	-32	3.3	3214	-2	-2	-7	-1
Cc1ccc(-c2nn(-c3ccccc3)cc2C=NNC(=O)CSc2nnc(C)n2-c2ccccc2)cc1	x	-11	x	3	9	x	-14
O=C(Nc1nnc(CCS(=O)(=O)c2ccc3ccccc3c2)s1)c1cccs1	8	x	2452	x	x	-29	x
COc1ccc(NC(=O)CN(C)S(=O)(=O)c2ccccc2)c([N+](=O)[O-])c1	-25	5.4	10806	17	4	-3	4
CC(O)CC#Cc1ccc2oc(=O)c(-n3cc(-c4ccsc4)nn3)cc2c1 (configuration not stated)	x	9.6	x	6	2	x	5
CNC(=O)CN(c1ccc(F)cc1)S(=O)(=O)c1cc(C)ccc1OC	-21	0.9	11199	4	-2	-4	9
Cc1ccccc1OCCn1c(CCNC(=O)C(C)C)nc2ccccc21	-26	3.1	2422	3	6	-2	-2
COc1cc(Cl)c(C)cc1NC(=O)c1ccc(S(C)(=O)=O)cc1	-4	2.4	3399	16	8	-2	12
O=C(NNC(=S)Nc1ccccc1)c1cccc(Br)c1	-45	4.6	12500	8	1	-15	-3
CCc1ccc(NC(=O)C(=O)NN=C(C)CC(=O)NCCOC)cc1	x	2.7	x	9	0	x	3
COC(=O)C(C)Sc1nc(NCc2ccccc2)nc(N(C)C)n1 (configuration not stated)	12	-1.3	3188	-6	1	3	-5
COc1nn(CC(=O)N2N=C(C)CC2(O)C(F)F)cc1[N+](=O)[O-] (configuration not stated)	-17	-1.4	3336	7	-1	-14	-1
O=C(c1ccc2c(=O)n3c(nc2c1)CCCCC3)N1CCCCC1	-5	5.3	5589	-1	4	3	12
Cc1ccc(S(=O)(=O)NN=Cc2ccc([N+](=O)[O-])o2)cc1	x	8.0	x	10	-7	x	36
O=C(Nc1ccncc1)c1sc2ccccc2c1Cl	-42	-3.2	4610	-3	-2	4	-4
CC1=CC(C)(C)NC(=S)N1C(C)c1ccccc1 (configuration not stated)	-13	3.8	3715	1	-3	2	0

Next entries
SMILES	PrP UTR inh	Sa RN4220 lethal	Autofluor counter	Mtb hypoxia rep	Mtb hypoxia rep growth	BJeLR lethal	ugtP null kill
CCN(CC(=O)Nc1cccc(OC)c1)c1ncnc2sc(C)c(C)c12	-31	8.4	10767	5	6	9	-6
Cc1cc(NC(=O)c2cccc(S(=O)(=O)N3CCOCC3)c2)no1	-20	1.3	4308	-2	2	-4	-1
Cn1c(N)c(C(=O)COC(=O)/C=C/c2ccc(Cl)c(Cl)c2)c(=O)n(C)c1=O	-17	2.2	4067	7	3	x	-11
CCN(c1ccccc1)S(=O)(=O)c1cnc[nH]1	4	11	3354	x	x	4	14
COc1cccc(N2CC(C(=O)N3CCC4(CC3)CC(=O)c3ccccc3O4)CC2=O)c1 (configuration not stated)	6	-1.7	u	-2	-6	8	-2
NS(=O)(=O)c1ccc(NC(=O)COC(=O)c2cc([N+](=O)[O-])ccc2Cl)cc1	-30	6.3	4558	11	7	-3	-1
Cn1c2ccccc2c(=O)c2c(=O)n(-c3ccc(F)cc3)c(C3CCCCC3)nc21	-23	-1.6	4779	-3	17	x	-3
CC(=NNC(=O)c1ccc(Cl)c(Cl)c1)c1cccc(NC(=O)C(C)C)c1	x	-0.1	x	2	9	x	9
O=[N+]([O-])c1ccc(Cl)c(C=Nn2c(COc3ccccc3)n[nH]c2=S)c1	x	9.7	x	6	3	x	-5
CCSc1oc(-c2ccco2)nc1S(=O)(=O)c1ccc(F)cc1	-14	4.8	4310	9	7	-6	-1
CCOc1ncccc1C(=O)N1CCN(S(=O)(=O)c2ccc(Br)cc2Cl)CC1	1	9.3	4178	14	0	2	8
OCCN1CCN(c2nc(-c3ccccc3)c3cc(Cl)ccc3n2)CC1	2	-7.7	3648	x	x	5	25
CN(CCC#N)C(=O)COC(=O)c1ccc2c(=O)n3c(nc2c1)CCC3	13	-0.5	3387	1	11	6	1
CS(=O)(=O)N(CC(=O)Nc1ccc(F)cc1F)c1cccc([N+](=O)[O-])c1	-34	0.2	5598	17	11	1	6
O=C1C=C(N2CCCCCC2)C2(CCCCC2)O1	-16	6.4	4933	5	2	-9	2
Cc1ccc(S(=O)(=O)NCC2CCC(C(=O)N3CCN(C)CC3)CC2)cc1 (configuration not stated)	-21	5.2	5923	-2	10	-9	7
O=c1[nH]cnc2c1ncn2-c1ccc(Cl)cc1	-20	3.0	3878	-6	3	x	-1
CC(C)N(Cc1nc(-c2ccccc2)no1)C(=O)c1ccc2c(c1)OCO2	-14	6.7	11349	13	7	-5	8
Cc1n[nH]c(=S)n1/N=C/c1ccccc1OCc1ccc(Cl)cc1	-61	x	19713*	x	x	-5	x
CCOCCCn1c(SCC(=O)Nc2oc(C)c3c(C)n[nH]c(=O)c23)nc2ccccc2c1=O	-8	2.4	5431	-1	8	x	5

Looked up above.
Entry for CC(C)N(Cc1nc(-c2ccccc2)no1)C(=O)c1ccc2c(c1)OCO2 under ugtP null kill: 8
Entry for CCOCCCn1c(SCC(=O)Nc2oc(C)c3c(C)n[nH]c(=O)c23)nc2ccccc2c1=O under Sa RN4220 lethal: 2.4

Following part
SMILES	PrP UTR inh	Sa RN4220 lethal	Autofluor counter	Mtb hypoxia rep	Mtb hypoxia rep growth	BJeLR lethal	ugtP null kill
Cc1cccc(NC(=O)c2onc3c2CCCC3)c1C	-56	9.1	2388	10	10	11	5
CCCCc1cc(=O)oc2c(C)c(OCC(=O)N3CCC(C(N)=O)CC3)ccc12	-12	4.3	5467	x	x	-4	2
CC(C)N1C(=O)N(c2ccccc2)C(C)(O)CC1(C)C (configuration not stated)	-18	5.0	2040	2	7	-4	0
O=C(Nc1ccc(OC(F)(F)F)cc1)C1CCCCN1S(=O)(=O)c1ccccc1 (configuration not stated)	-31	-7.9	5776	-4	8	x	-8
O=C(c1coc(=O)c(Br)c1)N1CCCc2ccccc21	-7	-0.8	3008	-3	6	1	-2
CC1(C(=O)O)CCC(C(=O)N2CCOCC2)C1(C)C (configuration not stated)	-9	4.6	4867	13	7	-2	1
COC(=O)c1ccc(OCC(=O)N2CCCc3ccccc32)cc1	0	7.3	4204	-6	8	-4	10
Cc1nc(NC(=O)CSc2nnc(N)s2)c(Cl)cc1Cl	-13	14	4226	13	10	-1	6
O=C1Cc2cc(S(=O)(=O)NCc3ccccc3Cl)cc3c2N1CCC3	-11	3.3	5814	3	2	0	1
Cc1cc(C)n2nc(C(=O)OCC(=O)N(C)C3CCCCC3)nc2n1	-27	1.6	5504	11	0	3	7
Cc1ccc(C)c2c1cc(C)c1nnc(SCC(=O)Nc3nc4c(s3)CCCC4)n12	-1	7.4	2490	12	-2	5	0
O=C(Nc1ccc(-c2ccccc2)cc1)c1ccco1	9	1.2	4449	12	-3	-2	3
COC(=O)CCC(=O)Nc1nnc(C(F)(F)F)s1	-13	6.8	2345	x	x	-8	6
O=C(CSc1nnc(-c2ccco2)o1)c1ccccc1	-34	7.3	4458	21	19	-2	-13
Cc1ccc(NC(=O)CCc2c(C)nn(-c3ccc(N4CCCCC4)nn3)c2C)cc1F	-73	-8.5	4459	4	-5	7	1
COc1ccc(C(=O)/C=C\N2CCOCC2)cc1	-19	x	2526	x	x	-1	x
CC1(C)Cc2ccccc2C(=NCCCCCC(=O)O)N1	x	3.3	x	2	-5	-2	4

Random draw from the library; any-hit rate near 4%.
